Compound activity (PubChem)
rRNA inh HTS = inhibits bacterial ribosomal RNA function over humanized ribosomes; E. coli WT GFP vs humanized-ribosome RFP mutants, fluorescence, 24 h; hits give low values; DMSO median 0, no signal -100; GFP signal change (wild-type ribosome), % (test concentration not listed); 350,000 tested, 1.6% active; AID 720706;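 active = significant combined selectivity score with lowered wild-type GFP, culture density cut under 30%, mutant RFP and density less affected; inactive = any of these conditions unmet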; note: one replicate is shown; some compounds called inactive have numbers as strong as hits
rRNA inh HTS OD600 = recorded beside rRNA inh HTS, whose call it bears; OD600 change, %; measured here: OD600 growth;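 optical density of the mix in the first replicate; 0 = DMSO median and -100 = no signal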
rRNA inh HTS RFP = further read-out of rRNA inh HTS, marked with its call; RFP signal change, %; measured here: RFP humanized mutant strains;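 first replicate; 0 = DMSO median and -100 = no signal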
Active calls of the source: *.

Structure	rRNA inh HTS	rRNA inh HTS OD600	rRNA inh HTS RFP
CNC[C@@H]1Oc2ccc(N)cc2CC(=O)N(C)C[C@@H]1C	-3	4	0.5
CCCNC(=O)N[C@@H]1C=C[C@@H](CC(=O)NCCc2ccccc2)O[C@@H]1CO	1	0	-0.7
CO[C@@H]1CN(C)C(=O)c2cc(NC(=O)c3cc(C)on3)ccc2OC[C@@H](C)N(CC2CC2)C[C@H]1C	-3	-7	-1.4
COCC(=O)N1CC[C@@H]2[C@@H](CO)Nc3ccc(-c4cccc(C(=O)N(C)C)c4)cc3[C@@H]21	3	17	1.3
O=c1c(-c2ccccc2)nc2ccccc2n1C(c1ccccc1)c1nc2ccccc2[nH]1 (configuration not stated)	0	13	-0.4
CO[C@@H]1CN(C)C(=O)c2ccc(NS(=O)(=O)c3ccc(C)cc3)cc2OC[C@@H](C)N(C(=O)NC(C)C)C[C@@H]1C	1	4	-0.8
CO[C@H]1CN(C)C(=O)c2cc(NC(=O)NC(C)C)ccc2OC[C@@H](C)N(CCC(F)(F)F)C[C@@H]1C	-2	-3	0.7
C[C@@H]1CN([C@H](C)CO)C(=O)c2c(c3ccccc3n2C)-c2ccccc2CO[C@@H]1CN(C)C(=O)Nc1cccc(Cl)c1Cl	-2	4	-3.3
O=C(c1ccncc1)N1CC(=O)N2[C@H](CO)[C@@H](c3ccc(C#CCC4CCCC4)cc3)[C@H]2C1	-52	-75	-2.0
CO[C@H]1CN(C)C(=O)c2cc(NC(=O)C3CCCC3)ccc2OC[C@H](C)N(C(C)=O)C[C@@H]1C	1	0	-0.1
CNC[C@H]1Oc2c(NC(=O)NC(C)C)cccc2C(=O)N(C)C[C@H]1C	1	1	-2.1
C[C@@H]1CN([C@H](C)CO)C(=O)c2ccccc2-c2ccccc2CO[C@@H]1CN(C)Cc1cccc2c1OCCCO2	2	2	2.2
CCOC(=O)N1CCN(C(C(=O)NC2CCCC2)C(C)C)CC1 (configuration not stated)	8	20	-0.8
COc1ccc(NC(=O)Nc2cccc3c2O[C@@H](CN(C)Cc2ccc(Cl)c(Cl)c2)[C@@H](C)CN([C@H](C)CO)C3=O)cc1	-5	-8	-0.1
COc1ccc(NC(=O)N(C)C[C@H]2Oc3c(NC(=O)Nc4ccc(C(F)(F)F)cc4)cccc3C(=O)N([C@@H](C)CO)C[C@H]2C)cc1	3	-6	-0.2
Cc1ccccc1-c1ccc2c(c1)[C@@H]1C[C@H]3[C@@H](CN1CC2)[C@H](C)ON3C	-4	-6	5.5
Cn1cnc(S(=O)(=O)N2CC[C@@H]3[C@@H](CO)Nc4ccc(-c5ccccc5F)cc4[C@@H]32)c1	-7	-5	-5.1
COc1cccc(CN2[C@@H](CO)[C@H](c3ccccc3)C23CN(Cc2ccccc2OC)C3)c1	-2	-15	2.3
CCC(=O)N1C[C@H](C)[C@@H](OC)CN(C)C(=O)c2cc(NC(=O)CC(F)(F)F)ccc2OC[C@@H]1C	2	-1	2.2
COC(=O)C[C@H]1C[C@@H]2c3cc(NS(=O)(=O)c4ccccc4)ccc3O[C@@H]2[C@H](CO)O1	1	-2	-1.0
C/C=C/c1ccc([C@H]2[C@@H](CO)N3CCCCN(C(=O)c4ccc(F)cc4)C[C@@H]23)cc1	1	-7	0.1
CCCC(=O)Nc1ccc2c(c1)OC[C@@H](C)N(C(=O)CN(C)C)C[C@@H](C)[C@@H](OC)CN(C)C2=O	2	-2	-0.3
CN(c1cccnc1)c1ccc(NC(=O)Cc2c[nH]c3ccccc23)cc1-c1ccc(F)c(F)c1	-4	-8	5.2
COc1ccc(CN(C)C[C@@H]2OCCCC[C@H](C)Oc3ccc(NS(=O)(=O)c4ccc(OC)cc4)cc3C(=O)N([C@H](C)CO)C[C@H]2C)cc1	0	-15	17
Cc1ccc(S(=O)(=O)Nc2ccccc2OC(C(=O)OC(C)(C)C)C(=O)OC(C)(C)C)cc1	7	13	-1.1

Taken from above:
Result for O=C(c1ccncc1)N1CC(=O)N2[C@H](CO)[C@@H](c3ccc(C#CCC4CCCC4)cc3)[C@H]2C1 in rRNA inh HTS: -52
Result for COc1ccc(NC(=O)N(C)C[C@H]2Oc3c(NC(=O)Nc4ccc(C(F)(F)F)cc4)cccc3C(=O)N([C@@H](C)CO)C[C@H]2C)cc1 in rRNA inh HTS: 3
Result for COc1ccc(NC(=O)Nc2cccc3c2O[C@@H](CN(C)Cc2ccc(Cl)c(Cl)c2)[C@@H](C)CN([C@H](C)CO)C3=O)cc1 in rRNA inh HTS OD600: -8

Later entries:
Structure	rRNA inh HTS	rRNA inh HTS OD600	rRNA inh HTS RFP
Cc1noc(C)c1NC(=O)N(C)C[C@H]1Oc2ccc(NS(=O)(=O)c3c(C)noc3C)cc2C(=O)N([C@@H](C)CO)C[C@@H]1C	7	13	-2.3
CCNC(=O)C[C@H]1CC[C@@H]2[C@H](COc3ccc(NC(=O)c4ccccc4Cl)cc3C(=O)N2C)O1	0	9	3.1
COc1ccc2c3c(n(C)c2c1)[C@H](CO)N(C(=O)NC(C)C)CC31CN(C(C)=O)C1	1	11	-3.2
O=C(N[C@H](Cc1ccccc1)C(=O)NCC1CCCCC1)[C@H]1O[C@@H](n2ccc(=O)[nH]c2=O)[C@H](O)[C@@H]1O	12	-7	1.4
C[C@H]1CN([C@@H](C)CO)C(=O)Cc2cc(NS(=O)(=O)c3cccs3)ccc2O[C@@H]1CN(C)C(=O)Nc1cccc2ccccc12	5	8	1.5
C[C@H](CO)N1C[C@H](C)[C@@H](CN(C)CC2CCCCC2)OCCCC[C@H](C)Oc2ccc(NC(=O)NC3CCCCC3)cc2C1=O	4	-4	0.3
C[C@H]1CN([C@@H](C)CO)C(=O)c2c(c3ccccc3n2C)-c2ccccc2CO[C@H]1CN(C)CC1CCCCC1	3	-7	2.2
C[C@H]1CN([C@@H](C)CO)C(=O)c2cc(C3=CCCC3)cnc2O[C@@H]1CN(C)C(=O)C1CC1	3	11	-3.7
COc1ccc(NC(=O)N(C)C[C@H]2OCCCC[C@H](C)Oc3ccc(NS(=O)(=O)c4c(C)noc4C)cc3C(=O)N([C@@H](C)CO)C[C@@H]2C)cc1	-1	-13	1.0
CN1OC[C@@H]2CN(C(=S)Nc3cc(C(F)(F)F)cc(C(F)(F)F)c3)[C@H](c3ccccc3Br)C[C@@H]21	15	11	-1.7
C[C@@H]1CN([C@H](C)CO)C(=O)c2cc(-c3ccc(F)cc3)cnc2O[C@H]1CN(C)C(=O)c1ccncc1	1	-4	-3.9
Cc1noc(C)c1S(=O)(=O)N(C)C[C@H]1Oc2ccc(NC(=O)Cc3ccccc3)cc2CC(=O)N([C@H](C)CO)C[C@@H]1C	-1	1	-1.0
CCCNC(=O)N1CC2(CN(C(C)=O)C2)c2c(n(C)c3cc(OC)ccc23)[C@@H]1CO	3	1	-1.7
CNC(=O)C[C@@H]1CC[C@H]2[C@H](COc3ccc(NC(=O)Nc4cccc(F)c4)cc3C(=O)N2C)O1	0	-5	0.2
O=C(C[C@@H]1CC[C@@H]2[C@H](COC[C@H](O)CN2C(=O)c2cccnc2)O1)Nc1ccc(-c2ccccc2)cc1	-1	-5	3.9
COc1ccc(CN(C)C[C@H]2OCCCC[C@@H](C)Oc3ccc(NC(=O)Nc4ccccc4)cc3C(=O)N([C@@H](C)CO)C[C@@H]2C)cc1	2	-25	21
CCOC(=O)CCCCCC(=O)Nc1ccc2c(c1)C(=O)N([C@@H](C)CO)C[C@H](C)[C@H](CN(C)S(C)(=O)=O)O2	1	7	-2.7
O=C1NCCOCc2cn(nn2)CCC[C@@H]1Cc1ccccc1	3	10	-4.0
C/C=C/c1ccc([C@@H]2[C@@H](CO)N(C(C)=O)[C@H]2CN(C)C(=O)CN(C)C)cc1	4	6	-3.6
Cc1[nH]c2ccccc2c1CC(=O)Nc1ccc(Nc2ccncc2)cc1	8	11	1.0
C[C@H](CO)N1C[C@H](C)[C@H](CN(C)S(=O)(=O)c2ccc(Cl)cc2)Oc2ccc(NS(=O)(=O)c3ccccc3)cc2C1=O	1	-3	6.8
COc1cccc(-c2cccc(-c3nc(C(=O)NCc4ccc(Oc5ccccc5)cc4)cc4c3[C@H](CCO)N(S(=O)C(C)(C)C)C4)c2)c1 (some centres not stated)	4	13	56
Cc1noc(C)c1NC(=O)Nc1ccc2c(c1)C(=O)N([C@H](C)CO)C[C@H](C)[C@@H](CN(C)C)OCCCC[C@@H](C)O2	2	3	-0.6
CC(C)NC(=O)Nc1ccc2c(c1)C(=O)N(C)[C@H]1CC[C@H](CC(=O)Nc3ccccc3F)O[C@@H]1CO2	6	-7	7.3
COc1ccc2c3c(n(C)c2c1)[C@H](CO)N(CC1CC1)CC31CN(C(=O)c2ccc(F)cc2)C1	-5	7	0.2

At a glance, some entries already given:
Structure	rRNA inh HTS	rRNA inh HTS OD600	rRNA inh HTS RFP
C[C@H](CO)N1C[C@H](C)[C@H](CN(C)S(=O)(=O)c2ccc(Cl)cc2)Oc2ccc(NS(=O)(=O)c3ccccc3)cc2C1=O	1	-3	6.8
COc1cccc(-c2cccc(-c3nc(C(=O)NCc4ccc(Oc5ccccc5)cc4)cc4c3[C@H](CCO)N(S(=O)C(C)(C)C)C4)c2)c1 (some centres not stated)	4	13	56
Cc1noc(C)c1NC(=O)Nc1ccc2c(c1)C(=O)N([C@H](C)CO)C[C@H](C)[C@@H](CN(C)C)OCCCC[C@@H](C)O2	2	3	-0.6
CC(C)NC(=O)Nc1ccc2c(c1)C(=O)N(C)[C@H]1CC[C@H](CC(=O)Nc3ccccc3F)O[C@@H]1CO2	6	-7	7.3
COc1ccc2c3c(n(C)c2c1)[C@H](CO)N(CC1CC1)CC31CN(C(=O)c2ccc(F)cc2)C1	-5	7	0.2

(cont.)
Structure	rRNA inh HTS	rRNA inh HTS OD600	rRNA inh HTS RFP
C[C@@H]1CCCCO[C@H](CN(C)C(=O)CCCN(C)C)[C@@H](C)CN([C@@H](C)CO)C(=O)c2cc(NC(=O)Nc3ccc4c(c3)OCO4)ccc2O1	2	1	-1.6
CC(=O)N(C)C[C@H]1Oc2c(NS(C)(=O)=O)cccc2C(=O)N(C)C[C@@H]1C	-2	6	1.8
C[C@H](CO)N1C[C@H](C)[C@@H](CN(C)C(=O)C2CCC2)Oc2cc(-c3ccc(F)cc3)ccc2S1(=O)=O	-1	-10	-2.2
C/C=C/c1ccc2c(c1)O[C@@H](CN(C)C(=O)C1CCC1)[C@H](C)CN([C@@H](C)CO)S2(=O)=O	2	-17	-3.4
C[C@@H]1C(=O)N[C@H](c2ccc(F)cc2)CC=CC[C@H](C)Oc2ccccc2C(=O)N1C (mixture of isomers)	-2	6	-0.1
CCNC(=O)Nc1ccc2c(c1)C(=O)N(C)[C@H]1CC[C@H](CC(=O)NCC3CC3)O[C@H]1CO2	1	4	-2.3
C[C@@H]1CCCCO[C@H](CN(C)C(=O)Nc2cccc3ccccc23)[C@H](C)CN([C@@H](C)CO)C(=O)c2cc(NS(=O)(=O)c3cn(C)cn3)ccc2O1	4	-8	5.4
CCCNC(=O)N1C[C@@H]2[C@H](c3ccccc31)[C@H](CO)N2C(=O)NC(C)C	4	7	-4.6
CO[C@H]1CN(C)C(=O)c2cc(NC(=O)NC(C)C)ccc2OC[C@H](C)NC[C@H]1C	4	5	-3.0
CC(=O)N(C)C[C@@H]1Oc2ccc(N(C)C)cc2CC(=O)N(C)C[C@@H]1C	0	-1	-0.8
OC[C@H]1N[C@@H](CNCC2CCC2)[C@@H]1c1ccc(C2=CCCC2)cc1	1	2	2.5
C[C@@H]1ON(C)[C@H]2C[C@H]3c4[nH]c5c(-c6ccc(Cl)cc6)cccc5c4CCN3C(=O)[C@@H]12	9	-2	3.2
COCC(=O)N1[C@@H](CO)[C@H](c2ccccc2)C12CN(C(=O)c1cccnc1)C2	4	6	-0.7
Cc1cccc(-c2ccc([C@H]3[C@@H](CO)N4CCCCN(S(=O)(=O)c5ccccc5F)C[C@@H]34)cc2)c1	-3	-6	-1.8
C[C@H](CO)N1C[C@H](C)[C@@H](CN(C)Cc2ccccc2)Oc2ccc(NS(C)(=O)=O)cc2C1=O	-1	5	-3.5
O=C(C1CCC1)N1CC[C@@H]2[C@H](CO)Nc3ccc(C4=CCCCC4)cc3[C@@H]21	-2	-16	2.4
Cc1[nH]c2ccccc2c1CC(=O)Nc1ccc(Nc2cccnc2)c(Br)c1	-12	-29	2.9
CO[C@@H]1CN(C)C(=O)c2cc(NC(C)=O)ccc2OC[C@@H](C)N(Cc2cccnc2)C[C@@H]1C	-2	-5	-3.1
Cc1ccc(S(=O)(=O)N2CC[C@H]3[C@@H](CO)N(C)c4ccc(C#Cc5cccnc5)cc4[C@H]32)cc1	-2	16	2.7
CO[C@H]1CN(C)C(=O)c2ccc(NC(C)=O)cc2OC[C@@H](C)N(C(=O)CN(C)C)C[C@H]1C	3	10	0.9
C[C@@H]1CCCCO[C@H](CN(C)C(=O)Nc2cccc3ccccc23)[C@H](C)CN([C@H](C)CO)C(=O)c2cc(NS(=O)(=O)c3cn(C)cn3)ccc2O1	-1	-18	6.3
CO[C@@H]1CN(C)C(=O)c2ccc(NC(=O)c3cnccn3)cc2OC[C@@H](C)N(CC2CC2)C[C@H]1C	-1	1	-1.3
CNC[C@H]1OCCCC[C@@H](C)Oc2ccc(NC(=O)NC3CCCCC3)cc2C(=O)N([C@@H](C)CO)C[C@H]1C	6	-2	-0.5
Cc1noc(C)c1NC(=O)Nc1ccc2c(c1)C(=O)N([C@H](C)CO)C[C@H](C)[C@H](CN(C)C(=O)Nc1cccc3ccccc13)OCCCC[C@H](C)O2	-3	2	-0.9
CO[C@H]1CN(C)C(=O)c2ccc(NC(C)=O)cc2OC[C@@H](C)N(C(=O)c2ccccc2F)C[C@@H]1C	0	2	-1.5
CCN1[C@H](C(=O)N2CCN(C)CC2)[C@@H](CO)[C@@H]2Cn3c(ccc(-c4ccccc4)c3=O)[C@@H]21	1	3	-3.4
C[C@@H]1CCCCO[C@H](CN(C)S(=O)(=O)c2cn(C)cn2)[C@@H](C)CN([C@@H](C)CO)C(=O)c2cc(NC(=O)Cc3ccccc3)ccc2O1	-1	-2	0.6

These rows are one share of the data; the hit share may differ from the screen's.
